NPYLR7 ag: mosquito NPYLR7 agonism | HEK293T NPYLR7/Galpha15, GCaMP6s calcium fluorescence | activation, % at 10 µM | 270,000 compounds, 0.15% hits; in the data active = activation above about 40%;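 note: 0% = vehicle and 100% = reference agonist at the receptor; some compounds past the cut are filed as inactive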
NPYLR7 ag max-min: second read-out of NPYLR7 ag, no call of its own (marks repeat the call); activation, %; measured here: Max-Min RFU normalised activation; some inactives read as strong as hits;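 span of the calcium signal over five minutes; 0% = vehicle and 100% = native peptide agonist; compound fluorescence can raise it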
* = called active by the depositor.

SMILES	NPYLR7 ag	NPYLR7 ag max-min
CNS(=O)(=O)c1ccc(C(=O)N2CCCCC2C(=O)Nc2cc(Cl)ccc2Cl)o1 (stereo not drawn)	5	2
CC1Sc2ccc(C#N)cc2N(Cc2ccccc2Cl)C1=O (stereo not drawn)	-6	-6
Cc1nc(Nc2ccc(NC(=O)Cc3noc4ccccc34)cc2)cc(-n2cccn2)n1	-4	-5
CC(C)C(=O)Nc1nc(CC(=O)NCC(c2ccco2)N(C)C)cs1 (stereo not drawn)	0	-4
CCOc1ccnc(N(C)Cc2ncc(C)[nH]2)n1	9	0
Cc1cccnc1C(NC(=O)C1CCN(CCn2cnc3c2c(=O)n(C)c(=O)n3C)CC1)c1ccc(Cl)cc1 (stereo not drawn)	7	-7
CC1=NN(c2ccc(Cl)cc2)C(=O)C12CC(C)=C(C)CS2 (stereo not drawn)	13	13
O=C1C(=Cc2ccccc2O)NC(=S)N1Cc1ccco1	80*	68*
CCOCCOc1ccccc1C(=O)N1C[C@H]2CC=C(C)C[C@H]2C1	-7	-6
CC(=O)c1ccc(NC2=C(n3nnc4ccccc43)C(=O)c3ccccc3C2=O)cc1	0	-4
Cc1cc(=O)n(CC(=O)Nc2ccccc2)c(-n2nc(C)cc2C)n1	12	12
Cc1ccc(CSc2nnc3ccc(-c4ccncc4)nn23)cc1	-19	-14
CC(=O)Nc1ccc(C(F)(F)F)cc1NC(=O)Cc1ccc(Cl)cc1Cl	-2	-3
CS(=O)(=O)N1CCSC1c1cccc(Cl)c1 (stereo not drawn)	5	2
COc1cc(O)ccc1-c1nccn1Cc1cccc(OC)c1OC	-1	3
Cn1cc(CC(=O)NCCN2CCN(S(C)(=O)=O)CC2)c2ccccc21	4	1
COc1ccc(-n2ncc(Oc3cccc(C(C)C)c3)c(Nc3ccc(C(=O)NCCN4CCOCC4)cc3)c2=O)cc1	12	8
Cc1cc(SCC(N)=O)n2nc(C)c(-c3ccccc3)c2n1	-4	-8
N#CCCS(=O)(=O)Oc1ccccc1	4	4
CNC(=O)[C@@H]1C[C@H]2CN(C)C(=O)c3cccc(c32)N1C(=O)c1ccc(F)cc1	1	11
O=C1CCC(C(=O)N2CCOc3ccccc3C2)CN1CCN1CCOCC1 (stereo not drawn)	4	2
CCc1cccc(NC(=O)Nc2ccc(N3CCN(c4ccccc4OC)CC3)c(C(=O)NCCCN(C)C)c2)c1	-1	10
O=C(Cn1cc(NC(=O)c2ccc(OC(F)F)cc2)cn1)NC1CC1	-3	-2
CCN(CC)c1ccc(CNC2CC2)c(OS(=O)(=O)c2ccc(F)cc2)c1	-6	-14
COc1ccc2nc(N)sc2c1	1	0

Some of the entries so far, as labelled records:
> CCOCCOc1ccccc1C(=O)N1C[C@H]2CC=C(C)C[C@H]2C1
- NPYLR7 ag: -7
- NPYLR7 ag max-min: -6

> CC1Sc2ccc(C#N)cc2N(Cc2ccccc2Cl)C1=O (stereo not drawn)
- NPYLR7 ag: -6
- NPYLR7 ag max-min: -6

(next part)
SMILES	NPYLR7 ag	NPYLR7 ag max-min
C=CCNC(=O)Cn1c(-c2nnc(C(C)C)o2)cc2ccccc21	0	-2
COc1ccc(/C=C/C#Cc2ccccc2)cc1	1	10
CC(=O)c1c[nH]c(C(=O)Nc2cc(-c3ccccc3C)nn2C)c1	3	2
CN1N=C(c2ccc(F)c(F)c2)CSC1=NCc1ccccc1	-7	-5
CCOC(=O)N1CCN(c2nc(C)c3c(n2)CC(c2cccs2)CC3=O)CC1 (stereo not drawn)	10	9
O=C(Nc1cccc(Cl)c1)NC1CCN(c2ccccc2C(=O)NCc2ccc3c(c2)OCO3)CC1	0	9
NC[C@@H]1O[C@H](C23CC4CC(CC(C4)C2)C3)Cc2c1ccc(O)c2O	6	-9
CCN(CC)CCCn1c2c(c(SCC(=O)Nc3cc(C)cc(C)c3)nc1=O)CCC2	0	6
O=C(Nc1ccc(S(=O)(=O)N2CCOCC2)cc1)c1cc2cc(Cl)ccc2oc1=O	-1	5
CC(C)(C)Nc1c(-c2ccc(F)cc2)nc2ccccn12	9	6
c1ccc(-c2cc(CN3CCCC3c3nc4ccccc4s3)on2)nc1 (stereo not drawn)	-3	-4
O=C(CCCCl)Nc1ncc(Cc2ccc(Cl)c(Cl)c2)s1	1	-4
CC(C(=O)NS(=O)(=O)CCN1CCN(C(=O)OC(C)(C)C)CC1)c1ccsc1 (stereo not drawn)	-8	-6
CN1CCN(C(=O)c2cnn(-c3ccccc3Cl)c2)c2cnccc21	4	-5
Cc1cc(COc2ccccc2)oc1C(=O)N1CCC(n2ccnc2)C1 (stereo not drawn)	-2	-5
Cc1cc(C)nc(NN=C2C=C(N3CCCC3)CCC2)n1	7	6
COc1ccc(C(=O)NCCCNC(=O)[C@H]2CCCN2C(=O)c2cccc(Br)c2)cc1	-1	4
CCOC(=O)c1nc2cc(C)c(C)cc2nc1N1CCN(C(=O)c2ccc(Cl)cc2)CC1	4	3
O=C(c1cnccn1)N1CCC(N2CCOC(CCc3ccccc3)C2)CC1 (stereo not drawn)	5	-4
O=C1c2ccc(-c3nc4ccccc4c(=O)o3)cc2C(=O)N1c1ccc(Cl)cc1	0	-2
CCOC(=O)c1nn(-c2ccccc2)c(=O)cc1OCc1cccc(C)c1	8	2
CCCS(CCC)=C(C(=O)OC)[N+](=O)[O-]	-3	-8
Cc1cc(=O)c2c(O)c3c(O)cc(=O)c4c3c3c(cc(O)c1c23)C(C)(C)C=4O	4	3
O=C(Cc1ccc(-c2ccccc2)cc1)NCCn1ncccc1=O	0	-3
Cc1cc(-n2c(C)cc(C(=O)COC(=O)c3ccc(Br)o3)c2C)no1	9	9

Next part.
SMILES	NPYLR7 ag	NPYLR7 ag max-min
O[C@@H]1CN(Cc2ccccc2-c2ccco2)CC[C@H]1N1CCCCCC1	4	4
COc1cccc(C(=O)N2CCC(C(=O)NCCNC(=O)c3ccccc3)CC2)c1	22	33
COc1ccc(C(=O)Nc2cccc(O)c2)cc1S(=O)(=O)N1CCOCC1	-17	-22
O=C(Nc1cc(C(F)(F)F)ccc1I)c1ccc(Cl)s1	5	3
CS(=O)(=O)NCCc1ccc(C(=O)O)s1	5	8
CC(=O)c1ccc(OCCOc2ccc(C#N)cc2)cc1	-3	-4
CCCNC(=O)CSc1nnc2[nH]c(=O)cc(CCC)n12	-24	-19
COc1ccc(CCN(C)c2cc(Oc3ccc(F)cc3F)ncn2)cc1OC	3	7
CCOC(=O)c1sc(NC(=O)c2ccc(F)c(F)c2)c(C(=O)OCC)c1C	-3	-4
CCOC(=O)C1(C)CCCCN1C(=O)c1ccc(Cl)nc1 (stereo not drawn)	-4	-10
Cc1c(C(=O)N2CCN(S(=O)(=O)c3c(Cl)cccc3Cl)CC2)cnn1-c1ccccc1	-1	23
Cc1ccc(NC(=O)Cc2ccc(-n3cccn3)cc2)nc1	6	5
CCOc1ccc(OCCOc2ccccc2)cc1	13	4
CCC(C)NS(=O)(=O)N(C)C1CCCCC1 (stereo not drawn)	-3	-9
O=C(CCl)Nc1ncc(Cc2cccc(Cl)c2)s1	11	4
CCOC(=O)c1cccnc1-c1ccc(OC)cc1OC	-1	0
Cc1cc(C)nc(SCC2=NC(C)(C)Cc3ccccc32)n1	1	-1
O=C(CN(C(=O)Nc1cccc(Cl)c1)C1CCCCC1)N(Cc1ccc(F)cc1)Cc1cccs1	-9	-7
Nc1ncnc2c1cnn2-c1ccccc1	4	2
CO/N=C(\C(=O)NC1C(=O)N2C(C(=O)O)=C(C[N+]3(C)CCCC3)CSC12)c1csc(N)n1 (stereo not drawn)	-4	1
CC(c1ccc(F)c(F)c1)N(C)C(=O)c1ccc(-n2cc[nH]c2=S)cc1 (stereo not drawn)	12	6
CC(C)Cn1c(=O)c2c(nc3n2CC(C)CN3c2ccccc2)n(C)c1=O (stereo not drawn)	20	13
CCc1ccc(NC(=O)CSc2nccn3nc(-c4ccc(OC)cc4)cc23)cc1	-2	-4
COc1cc(-c2ccnc(N3CCN(C(=O)c4cccnc4SC)CC3)n2)cc(OC)c1OC	23	21
NC(N)=NS(=O)(=O)c1ccccc1	4	0

The final 7 compounds of the part above come first, to join the parts.
SMILES	NPYLR7 ag	NPYLR7 ag max-min
Nc1ncnc2c1cnn2-c1ccccc1	4	2
CO/N=C(\C(=O)NC1C(=O)N2C(C(=O)O)=C(C[N+]3(C)CCCC3)CSC12)c1csc(N)n1 (stereo not drawn)	-4	1
CC(c1ccc(F)c(F)c1)N(C)C(=O)c1ccc(-n2cc[nH]c2=S)cc1 (stereo not drawn)	12	6
CC(C)Cn1c(=O)c2c(nc3n2CC(C)CN3c2ccccc2)n(C)c1=O (stereo not drawn)	20	13
CCc1ccc(NC(=O)CSc2nccn3nc(-c4ccc(OC)cc4)cc23)cc1	-2	-4
COc1cc(-c2ccnc(N3CCN(C(=O)c4cccnc4SC)CC3)n2)cc(OC)c1OC	23	21
NC(N)=NS(=O)(=O)c1ccccc1	4	0
CC(C)CCn1c(SCc2ccc(F)cc2)nc2c1c(=O)[nH]c(=O)n2C	4	33
COc1ccc(/C=C/CN2CCC(C(=O)NC(c3ccc(F)cc3)c3cnccn3)CC2)cc1 (stereo not drawn)	51	34
O=C(NN=Cc1c(O)ccc2ccccc12)c1ccn[nH]1	-5	-4
O=C1c2oc3ccccc3c(=O)c2C(c2cccnc2)N1c1nccs1 (stereo not drawn)	8	11
CCCNC(=O)N1CCN(Cc2nnc3n2CCCCC3)CC1	-1	-2
Cc1cc2nc(-c3cccs3)cc(C(=O)NCCCN3CCOCC3)c2cc1C	6	6
CC1C(=O)N(c2ccc(F)c(Cl)c2)CCN1Cc1c(F)cccc1F (stereo not drawn)	19	18
CC(NC(=O)NCC(=O)N1CCCC1)c1ccc(C(C)(C)C)cc1 (stereo not drawn)	-1	-1
CC1CC1C(=O)NCCC(=O)N(C1CC1)C1CCCc2ccccc21 (stereo not drawn)	-1	-2
COCCN(Cc1ccc(C(C)(C)O)o1)Cc1ccccc1C	15	20
Clc1ccccc1Nc1cc2c(cn1)ncn2Cc1ccccc1	8	-1
CN(Cc1cnn(-c2ccc(F)cc2)c1)Cc1cnc(N(C)C)s1	9	8
Cc1cc(C)cc(OS(=O)(=O)CCN2C(=O)NC3(CCCCC3)C2=O)c1	-3	-10
Cc1ccc(OCC(=O)N=Nc2c(O)[nH]c3ccc([N+](=O)[O-])cc23)c(C)c1	-3	-7
O=C(O)c1cccc(-n2c(CN3CCc4ccccc4C3)n[nH]c2=O)c1	16	5
Cc1ccc(Cn2nnc(C(=O)Nc3c(C)cc(C)cc3C)c2N)cc1	5	15
COc1cccc(-c2ccc(NC(=O)C(C)C)cc2)c1OC	4	3
COc1cccc(-n2c(SCC(=O)Nc3cc(C)on3)nc3c([nH]c4ccccc43)c2=O)c1	-2	50
CCC1CCCCN1C(=O)c1ccc(-c2cccc(Cl)c2)s1 (stereo not drawn)	-3	10
CN(CC1COCCO1)c1nccc(CCC(F)(F)F)n1 (stereo not drawn)	1	0
CCC(c1nc2ccccc2c(=O)n1-c1ccc(Br)cc1)N(CCc1ccccc1)C(=O)Nc1ccccc1Br (stereo not drawn)	30	26
CCCCCCCCCCCC(=O)Nc1ccc(N2CCCC2)c(C(=O)NC(C)CC)c1 (stereo not drawn)	-9	-8
CN(Cc1ccccc1)C(=O)NCc1ccnc(N2CCCC2)c1	2	1
CC1C(=O)N(c2ccc(Br)cc2)CCN1C(=O)c1ccc2c(c1)OCO2 (stereo not drawn)	3	3
O=c1cc(-c2ccccc2)nc2nc(NCc3cccc([N+](=O)[O-])c3)[nH]n12	-20	-23

A few values from the list.
For NPYLR7 ag, CC(=O)c1ccc(OCCOc2ccc(C#N)cc2)cc1 reads -3
For NPYLR7 ag max-min, COc1cc(-c2ccnc(N3CCN(C(=O)c4cccnc4SC)CC3)n2)cc(OC)c1OC reads 21

Continued:
SMILES	NPYLR7 ag	NPYLR7 ag max-min
COc1ccc(Cl)cc1C(=O)N1CCCC1C(=O)O (stereo not drawn)	0	-1
CCN1CCN(C(=O)c2ccc(N3CCC(N(C)Cc4nc5cc(C)c(C)cc5[nH]4)CC3)cc2)CC1	2	0
O=C(NCCN1CCOCC1)c1cc2nc(-c3cccs3)cc(C(F)(F)F)n2n1	-2	-5
CN(Cc1cccc2cnccc12)Cc1cccn1-c1ncccn1	5	-1
O=C(Nc1cccc(Cl)c1)N1CCCC(OCc2ccc(OC(F)(F)F)cc2)C1 (stereo not drawn)	-6	-4
O=C(NCc1cccnc1N1CCOCC1)c1ccc2c(c1)OCO2	1	-2
CCn1c(CC2CCN(c3nnnn3-c3ccccc3)CC2)nn(C)c1=O	19	7
Cc1ccnc2nc(C(=O)Nc3cc(Cl)ccc3N3CCCCC3)nn12	6	4
CC(=O)N[C@@H]1C[C@H](CC(C)C)O[C@H](c2coc3ccc(Cl)cc3c2=O)C1	-4	-4
CCC#CCN1Cc2ccccc2N(C(=O)C2CCC2)CCC1=O	5	11
O=c1[nH]c(=S)[nH]c(O)c1C=Nc1ccc(Br)cc1	2	-1
CC(C)OC(=S)Nc1ccccc1	-6	-11
O=c1c2ccccc2nc(Sc2ccc3nnnn3n2)n1C1CC1	-6	-5
Cc1ccc(C)c(N2CCn3c2nc2c3c(=O)n(C)c(=O)n2C)c1	-12	-14
Cc1ccc(C)c(NC(=O)CSc2nc(=O)n(Cc3cccnc3)c3c2CCC3)c1	-2	-2
CN(C)C(=O)C1CCCN1C(=O)COCc1ccccc1 (stereo not drawn)	17	9
Cc1nn(C)c(Cl)c1Cn1c(-c2ccccc2)noc1=O	5	3
c1ccc2sc(-c3nc4ccccc4s3)nc2c1	4	3
CCOC(=O)c1nn(-c2ccccc2C)c(=O)cc1OS(=O)(=O)N(C)C	-1	5
OC1=c2cccc(O)c2=C/C1=C\c1ccccc1OCc1ccccn1	1	1
COc1c(Br)cc(Cl)cc1S(=O)(=O)Nc1cc(C(=O)O)ccc1C	1	-3
Cc1ccc(N2CCn3c(SCC(N)=O)nnc32)cc1	0	-1

Entries of single compounds as entered above. Order of values: NPYLR7 ag	NPYLR7 ag max-min
Cc1cc(C)nc(SCC2=NC(C)(C)Cc3ccccc32)n1 in the list: 1	-1
Cc1c(C(=O)N2CCN(S(=O)(=O)c3c(Cl)cccc3Cl)CC2)cnn1-c1ccccc1 in the list: -1	23

Bioassay records: PubChem, Fisher Drug Discovery Resource Center

Some of the compounds tested; count on the stated rates, not on these rows.
